LANA-H2A inh: blocks KSHV LANA binding to histone H2A/H2B; Q9QR71; cell-free LANA-H2A/H2B peptide, fluorescence polarization; inhibition, % (concentration not given with the values); actives 0.6% (n = 320,000); AID 2629; in the data active = inhibition mostly above about 10%, no sharp cut-off; inactive = mostly below about 6.7%;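 also: stock transfer was 7.5 nL into about 10 µL; 0% = median of vehicle wells and 100% = median of positive control wells; one replicate is shown; the record names a cut of 25% in any replicate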
HNF4A DNA FP: change in binding of human HNF4 alpha to DNA; HNF4a-FITC DNA binding, fluorescence polarization, 1 h; AID 1224865; activity change, % at 10 µM; P41235; actives 0.3% (n = 360,000); in the data active = activity change above about 30%, passing the limit was not always enough;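 also: controls were the assay level and a saturating level of protein; the project sought stronger binding though the title names inhibitors; some compounds called inactive have numbers as strong as hits; positive values seem to mean higher polarization but the record does not say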
Target sequence (P41235 whole entry, looked up): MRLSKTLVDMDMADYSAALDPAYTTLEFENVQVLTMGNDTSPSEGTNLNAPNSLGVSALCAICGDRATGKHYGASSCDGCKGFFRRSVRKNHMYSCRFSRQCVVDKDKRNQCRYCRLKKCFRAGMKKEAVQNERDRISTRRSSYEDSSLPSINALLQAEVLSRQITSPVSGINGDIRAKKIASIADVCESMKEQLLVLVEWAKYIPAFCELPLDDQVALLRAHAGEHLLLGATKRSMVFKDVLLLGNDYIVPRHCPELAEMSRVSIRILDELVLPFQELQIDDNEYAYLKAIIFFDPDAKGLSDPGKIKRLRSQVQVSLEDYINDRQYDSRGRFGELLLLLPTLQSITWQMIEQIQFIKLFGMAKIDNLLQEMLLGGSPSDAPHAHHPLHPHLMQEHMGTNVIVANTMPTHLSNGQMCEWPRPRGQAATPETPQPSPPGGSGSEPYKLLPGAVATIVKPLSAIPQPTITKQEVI
Calb FLC: C. albicans growth modulation with fluconazole | actives 0.57% (n = 300,000) | C. albicans CaCi-2 (fluconazole-resistant clinical isolate) + fluconazole, Alamar Blue growth, 48 h | growth inhibition, % (concentration not given with the values);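 active = most replicates above 75%; inconclusive = exactly half above 75%; inactive = most below 75%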;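 also: all wells also contain fluconazole at 8 µg/ml as a sub-toxic cotreatment; 0% = median of DMSO wells and 100% = median of geldanamycin control wells; wells of about 8 µL received 7.5 nL stock; the first replicate is given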
RanGTP-Impb inh: disruptors of Ran-importin-beta complex formation – biochemical, FRET, CFP-Ran, YFP-importin-beta, homogeneous, primary screen. actives 1.1% (n = 300,000). AID 2216. cell-free CFP-Ran/YFP-importin-beta FRET ratio. inhibition, % (no concentration beside the values);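 active = most replicates above 15%; inconclusive = exactly half above 15%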;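 also: 0% = DMSO wells and 100% = Ran loaded with GDP instead of GTP; wells of about 40 µL received 100 nL stock; the first replicate is given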
Beta2AR agonist: human beta-2 adrenergic receptor agonism by FAP; P07550; Am2.2-beta2AR cells, FAP receptor internalization, flow cytometry; reference of the scale not given here; response, % (no concentration beside the values); actives 0.43% (n = 340,000); AID 504454;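 active = response above a set limit, near 3 SD of response in nonfluorescent compounds, cut at about 42% in these data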;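 also: stock transfer was 100 nL into about 11 µL; a reference agonist was the positive control; negative values mostly stem from fluorescent compounds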
Target sequence (P07550 whole entry, looked up): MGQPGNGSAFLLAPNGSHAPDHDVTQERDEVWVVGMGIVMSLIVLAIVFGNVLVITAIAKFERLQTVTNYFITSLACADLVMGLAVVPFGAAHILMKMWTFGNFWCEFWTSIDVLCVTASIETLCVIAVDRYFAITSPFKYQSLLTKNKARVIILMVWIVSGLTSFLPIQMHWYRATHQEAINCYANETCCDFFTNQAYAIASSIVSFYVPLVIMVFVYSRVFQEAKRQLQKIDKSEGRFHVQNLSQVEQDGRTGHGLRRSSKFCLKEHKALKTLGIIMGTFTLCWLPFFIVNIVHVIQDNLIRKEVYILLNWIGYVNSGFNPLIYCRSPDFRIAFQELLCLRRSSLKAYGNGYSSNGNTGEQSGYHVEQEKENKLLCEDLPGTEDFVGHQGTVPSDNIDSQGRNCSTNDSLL
ALR inh: human ALR oxidase inhibition via reduced H2O2 | P55789 | purified ALR, DTT oxidation, H2O2 HRP-luminol luminescence | inhibition, % (test concentration not listed) | actives 3.8% (n = 290,000);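 active = mean and each replicate at 75% or more; inconclusive = only one of the two met; inactive = neither met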;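 also: stock transfer was 7.5 nL into about 7.5 µL; 0% = neutral wells and 100% = wells with inactivated enzyme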
Target sequence (P55789 whole entry, looked up): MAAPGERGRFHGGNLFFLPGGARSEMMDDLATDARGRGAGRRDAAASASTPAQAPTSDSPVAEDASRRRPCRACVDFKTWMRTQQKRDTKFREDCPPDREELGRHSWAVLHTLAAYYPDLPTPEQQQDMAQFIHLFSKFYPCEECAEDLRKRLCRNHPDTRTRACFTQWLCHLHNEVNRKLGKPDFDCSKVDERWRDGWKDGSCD
Vif A3G: HIV-1 Vif–A3G interaction blockers – biochemical, TR-FRET, GST-Vif 1-94, biotin-A3G peptide, dose response retest, primary screen (AID 1117319); inhibition, %, or IC50 in µM where a hit was titrated; TR-FRET GST-Vif / biotin-A3G peptide binding; higher % means a stronger effect; test concentration not given here; strong numbers were not always called active; actives 0.57% (n = 260,000);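 active = above the screen mean plus three standard deviations and confirmed in dose response; inconclusive = results disagree or hit not tested in dose response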;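 also: Vif residues 1-94 fused to GST binding biotinylated APOBEC3G peptide 110-148; 0% = full assay without inhibitor and 100% = GST in place of GST-Vif; retest series ran down from 100 µM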
* marks the source's active call; other numbers are inactive results; ? = inconclusive; nt = no result given.

The opening two compounds, to show the layout:
1. O=C(CCS(=O)(=O)Cc1ccccc1)Nc1nc2c(s1)CCCC2
2. Cc1ccc(S(=O)(=O)NC(C(=O)O)c2ccccc2)cc1 (stereo not given)
Compound	1	2
LANA-H2A inh	-0.9	0.8
HNF4A DNA FP	5.4	-1.1
Calb FLC	7.4	-16.9
RanGTP-Impb inh	0.3	5.1
Beta2AR agonist	10.2	5.3
ALR inh	-2.7	-2.3
Vif A3G	-0.5%	-1.6%

The whole of this part, previewed entries included:
1. O=C(CCS(=O)(=O)Cc1ccccc1)Nc1nc2c(s1)CCCC2
2. Cc1ccc(S(=O)(=O)NC(C(=O)O)c2ccccc2)cc1 (stereo not given)
3. CCn1nnc(NC(=O)c2cccnc2Cl)n1
4. O=C(NOCc1cscn1)Nc1ccccc1
5. CCSc1nc2c(c(=O)[nH]c(=O)n2C)n1CC(O)COc1ccccc1C (stereo not given)
6. CC(Oc1ccccc1)C(=O)Nc1nc(-c2ccncc2)cs1 (stereo not given)
7. CCN1C(=O)[C@H]2[C@@H](c3ccc(-c4ccc(C(C)=O)cc4)c(OC)c3)N[C@@](Cc3ccccc3)(C(=O)OC)[C@H]2C1=O
8. CSc1ccc(S(=O)(=O)Nc2ccc3c4c(cccc24)CC3)cc1
Compound	1	2	3	4	5	6	7	8
LANA-H2A inh	-0.9	0.8	7.4	nt	-2.9	5.6	1.8	-1.7
HNF4A DNA FP	5.4	-1.1	-0.8	3.0	-1.3	2.5	-1.0	2.7
Calb FLC	7.4	-16.9	-0.2	nt	?	nt	2.1	36.9
RanGTP-Impb inh	0.3	5.1	-1.5	nt	3.6	nt	-0.3	-1.2
Beta2AR agonist	10.2	5.3	1.2	-1.6	3.2	5.0	5.9	14.9
ALR inh	-2.7	-2.3	-1.9	nt	-3.5	-2.1	4.7	-3.9
Vif A3G	-0.5%	-1.6%	2.2%	-10.6%	?	0.1%	nt	?

Some of these compounds in order of their number in LANA-H2A inh, highest first:
entry	Structure	LANA-H2A inh
3	CCn1nnc(NC(=O)c2cccnc2Cl)n1	7.4
6	CC(Oc1ccccc1)C(=O)Nc1nc(-c2ccncc2)cs1 (stereo not given)	5.6
2	Cc1ccc(S(=O)(=O)NC(C(=O)O)c2ccccc2)cc1 (stereo not given)	0.8

Next records.
9. Cc1cccc2[nH]c(CN(C)C(=O)CC3C(=O)NCCN3CC(C)(C)C)nc12 (stereo not given)
10. Cc1ccccc1C(=O)NC(C(=O)Nc1nc2c(s1)CCCC2)C(C)C (stereo not given)
11. CC(=O)N1CCN(c2ccc(NC(=O)c3cccc([N+](=O)[O-])c3)cc2)CC1
12. Cc1ccc(S(=O)(=O)NNC(=O)C(O)(c2ccccc2)c2ccccc2)cc1
13. Cc1c(C#N)c2ncn(CC#N)c(=O)c2n1-c1ccccc1
14. CNC(=S)N1CCN(c2ccc(OC)cc2)CC1
15. CS(=O)(=O)c1nc(S(=O)(=O)c2ccc(Cl)cc2)c(NCCCN2CCCC2=O)s1
16. CCOC(=O)C1CCN(C(=O)CN(c2cccc(C(F)(F)F)c2)S(C)(=O)=O)CC1
Compound	9	10	11	12	13	14	15	16
LANA-H2A inh	-10.7	10.8	-3.1	-3.1	-1.2	8.7	6.0	1.5
HNF4A DNA FP	-5.0	-0.4	2.1	2.6	-1.0	1.9	-3.0	-0.5
Calb FLC	4.2	1.7	-0.2	4.1	26.6	0.3	-1.1	-1.5
RanGTP-Impb inh	1.0	-0.4	0.5	-1.3	2.9	-2.8	4.7	2.7
Beta2AR agonist	10.5	-2.8	2.5	-4.9	0.5	3.3	-7.1	3.3
ALR inh	-5.7	0.1	44.8	7.4	-2.9	96.0*	-1.5	2.3
Vif A3G	3.9%	-5.9%	nt	9.9%	?	?	nt	27.5%

17. CC(c1ccccc1)N1CC(C(=O)N2CCN(c3ccccc3)CC2)CC1=O (stereo not given)
18. Cc1[nH][nH]c(=O)c1C(c1cc(Br)ccc1O)c1c(C)[nH][nH]c1=O
19. O=C(CNC(=O)c1cccs1)N/N=C/c1cccc(Cl)c1
20. CCN(CC)C(=O)C1CCCN(C(=O)c2cc(COc3ccc4ncccc4c3)on2)C1 (stereo not given)
21. NC(=O)NC(=O)CN1C(=O)NC2(CCOc3ccccc32)C1=O (stereo not given)
22. Cc1ccc(-n2c(SCC(=O)NC3CCS(=O)(=O)C3)nc3ccccc3c2=O)cc1C (stereo not given)
23. CCOC(=O)c1ccccc1NC(=O)c1c(O)c2ccccc2n(CC)c1=O
24. CCOC(=O)C(=O)NN=C(c1ccccc1)c1ccccc1
Compound	17	18	19	20	21	22	23	24
LANA-H2A inh	4.9	-0.4	-6.4	1.6	-0.9	-0.7	-0.9	-1.0
HNF4A DNA FP	8.0	3.5	5.0	1.6	-1.8	0.4	-2.9	-1.0
Calb FLC	2.1	-0.2	6.3	0.1	-0.9	3.3	-25.5	3.8
RanGTP-Impb inh	-0.5	1.3	?	-0.3	?	3.9	nt	2.4
Beta2AR agonist	9.2	-3.5	-9.3	-4.1	0.0	4.7	-4.4	-2.5
ALR inh	?	21.9	-2.8	-10.0	-2.0	-0.1	0.7	3.6
Vif A3G	0.4%	-11.0%	-4.0%	nt	5.3%	-6.7%	0.9%	?

25. Cc1ccc(S(=O)(=O)N(C)C)cc1NC(=O)c1ccccc1Br
26. O=C(O)CCCN1C(=O)c2ccccc2Sc2ncccc21
27. Cc1ccc(S(=O)(=O)N2CCOCC2)cc1NC(=O)COC(=O)CCc1c[nH]c2ccccc12
28. Cc1cc(C)n(-c2ccc(C(=O)N3CCN(S(=O)(=O)c4ccc(Cl)cc4)CC3)cc2)n1
29. CC1(c2cc(F)ccc2F)NC(=O)N(CC(=O)Nc2cccc(S(=O)(=O)N3CCCC3)c2)C1=O (stereo not given)
30. COc1cccc(C2=CC(c3cccs3)n3nnnc3N2)c1 (stereo not given)
31. C=CCC[C@H](Cc1ccc(F)cc1)C(=O)OC[C@H](Cc1c[nH]c2ccccc12)NC(=O)[C@H](CC=C)CC(=O)N[C@H](CO)Cc1ccccc1
32. O=C(c1ccccc1)N1CCCCC(S(=O)(=O)c2ccc3ccccc3c2)C1=O (stereo not given)
Compound	25	26	27	28	29	30	31	32
LANA-H2A inh	-1.1	3.7	2.4	2.0	1.5	6.4	-1.9	-2.9
HNF4A DNA FP	4.1	-0.9	4.5	-0.9	3.6	-8.8	-1.1	-2.5
Calb FLC	10.0	5.5	nt	nt	nt	-2.6	nt	-1.5
RanGTP-Impb inh	0.2	-1.9	nt	nt	nt	1.6	nt	-1.0
Beta2AR agonist	-5.4	-7.5	-2.8	-1.0	-0.2	-12.5	-2.4	0.1
ALR inh	-5.2	-13.5	3.3	-1.7	-5.1	-2.0	11.9	-24.9
Vif A3G	-5.7%	-1.9%	-4.5%	-7.7%	-1.3%	8.9%	nt	6.9%

33. CCCNC(=S)N1CCC(n2cnc3ccccc32)CC1
34. COC(=O)C12CCC(C)(c3nc4ccccc4nc31)C2(C)C (stereo not given)
35. O=c1c2ccccc2ncn1C1CCCCC1
36. CCOc1ccc(S(=O)(=O)Nc2ncn[nH]2)cc1
37. O=[N+]([O-])c1cc(-c2csc(NCCc3nc4cc(Cl)c(N5CCCCC5)cc4n3CCCO)n2)ccc1Cl
38. O=C(c1ccco1)N(Cc1cccs1)C1CCS(=O)(=O)C1 (stereo not given)
39. CC(=O)c1sc(NC(=O)C2(F)C(F)(F)C(F)(F)C(F)(F)C(F)(F)C2(F)F)nc1C
40. Cc1cc(NC(=O)c2ccc(Cn3nc(C)c(Br)c3C)o2)no1
Compound	33	34	35	36	37	38	39	40
LANA-H2A inh	3.2	2.1	-2.9	-2.7	-5.1	3.3	-2.8	-4.6
HNF4A DNA FP	1.9	1.8	-1.5	-0.1	-2.8	-1.9	-0.1	-0.4
Calb FLC	-3.2	1.8	-3.1	-10.8	-7.1	-9.8	21.3	33.9
RanGTP-Impb inh	0.8	-2.7	-3.1	1.0	-2.6	0.3	2.8	6.9
Beta2AR agonist	-20.1	-8.8	0.1	-0.1	-0.9	1.0	10.8	-7.5
ALR inh	-5.5	-11.1	1.2	nt	-3.4	-1.2	38.0	-3.4
Vif A3G	7.8%	-10.1%	1.5%	nt	nt	5.8%	-2.0%	9.0%

41. CC(C)(C)C(=O)Nc1nnc(CC(=O)NCc2ccccc2)s1
42. Cc1ccc(-n2ncc(C(=O)N3CCN(C(=O)c4ccco4)CC3)c2-n2cccc2)cc1
43. O=C1CCC(=O)N1OCCCOc1ccc2c(c1)CCC2
44. CCOC(=O)c1c(C)[nH]c(C(=O)CSc2nnc(-c3cccs3)n2Cc2ccccc2)c1C
45. O=C1NCCN1CCNS(=O)(=O)c1ccccc1[N+](=O)[O-]
46. COc1cccc(NC(=O)C(C)C)c1
47. COc1ccc(NC(=S)NN2CCN(C)CC2)cc1OC
48. CCN(CC)CCn1c2c(c(SCC(=O)Nc3ccc4c(c3)OCO4)nc1=O)CCC2
Compound	41	42	43	44	45	46	47	48
LANA-H2A inh	-1.8	-5.6	-5.9	-2.3	6.0	2.4	0.4	6.9
HNF4A DNA FP	1.9	2.5	-1.2	0.5	1.8	0.4	1.3	0.0
Calb FLC	-1.4	45.7	10.4	-0.6	-10.8	15.6	-21.3	-2.7
RanGTP-Impb inh	-4.6	1.5	-0.1	-0.6	-2.0	?	-0.7	1.6
Beta2AR agonist	1.9	-1.8	-6.3	8.7	9.9	-2.5	0.7	-6.4
ALR inh	-3.4	-6.2	1.3	-12.9	-6.9	-1.4	40.1	-381.4
Vif A3G	2.7%	3.0%	-1.9%	16.6%	nt	nt	nt	-2.9%

49. C=CCOc1c(OC)cc(/C=N/Nc2cccc(C(=O)O)c2)c(Br)c1Br
50. O=C(NC1CCCCC1)c1cc(-n2cnnc2)ccc1Cl
51. Cc1c(Br)c([N+](=O)[O-])nn1CC(=O)Nc1ccc(C(C)C)cc1
52. CN(C)c1nc(N)nc(CSc2ccccn2)n1
53. Cc1ccc(NS(=O)(=O)c2ccc(Cl)s2)cc1S(=O)(=O)N(C)C
54. CS(=O)(=O)Oc1ccc(/C=N/NC(=O)c2ccncc2)cc1
55. O=C(COc1cccc2c1CCNC2=O)Nc1ccc(Cl)cc1
56. Cn1c2ccccc2c2n[nH]c(=O)nc21
Compound	49	50	51	52	53	54	55	56
LANA-H2A inh	3.1	-1.3	1.1	-1.7	-1.4	-1.2	nt	7.5
HNF4A DNA FP	-9.9	1.8	3.7	10.5	-1.8	0.4	0.1	1.2
Calb FLC	0.9	-3.9	-5.2	15.9	-1.8	21.7	5.4	-1.2
RanGTP-Impb inh	-1.9	1.8	1.1	-0.7	0.0	6.7	2.8	1.7
Beta2AR agonist	40.0	-7.4	18.2	-8.2	10.9	8.0	12.1	0.6
ALR inh	nt	-2.0	-9.9	-1.4	28.1	-4.6	nt	-2.8
Vif A3G	?	-4.7%	nt	0.2%	-0.3%	-7.2%	-5.9%	nt

57. COc1ccc(-c2cc(C)no2)cc1S(=O)(=O)NCCc1ccco1
58. CCCCN(C)CCNC(=O)C(=O)c1c(C)[nH]c2ccccc12
59. COc1ccc2[nH]c(=O)c(CN(CC3CCCO3)C(=S)Nc3ccc(C)cc3)cc2c1 (stereo not given)
60. CCOc1ccc2[nH]c(=O)c(CN(Cc3ccc(C)cc3)C(=O)N3CCCC3)cc2c1
Compound	57	58	59	60
LANA-H2A inh	-1.2	-2.1	1.1	1.5
HNF4A DNA FP	-2.1	-0.7	-4.0	2.6
Calb FLC	10.0	4.6	-2.5	4.9
RanGTP-Impb inh	?	1.6	1.0	-1.7
Beta2AR agonist	-0.1	0.7	6.1	-12.2
ALR inh	-9.2	-2.4	nt	nt
Vif A3G	nt	12.3%	nt	-4.0%
